Hsc70: Hsc70 inhibitors, probe displacement, primary screen, biochemical, fluorescence polarization (AID 568) | Hsc70 fluorescence polarization, probe displacement; higher % means a stronger effect; strong numbers were not always called active | one-dose displacement, % at 20 µM; IC50 in µM for titrated hits | 83,000 tested, under 10 active;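 active = displacement above 50% without optical interference and an IC50 on retest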;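 note: ATPase domain with a fluorescein-tagged ATP probe; 0% = vehicle and 100% = excess ADP; read after one hour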
MT1-MMP promoter: inhibitors of MT1-MMP promoter transcription, cell-based, luciferase reporter, luminescence (AID 618). MT1-MMP promoter luciferase reporter cells, luminescence. calls from a first round at 10 µM; hits with a dose series show EC50 in µM. hit rate 0.62% among 87,000;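 active = over half of the reporter light lost at 10 µM or EC50 under 50 µM; inactive = the rest and hits that failed the dose series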;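 note: actives suppress MT1-MMP promoter-driven transcription so potencies describe inhibitors; HT1080 fibrosarcoma cells; overnight exposure; toxic or luciferase-blocking compounds were not removed from the actives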
WNV NS2B-NS3 inh: inhibitors of WNV NS2B-NS3 protease, primary screen, biochemical, fluorogenic substrate. Genome polyprotein (West Nile virus), P06935. fluorogenic substrate Ex360/Em465; stronger effect = lower value. z-score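 (tested at a level between 10 and 100 µM)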. hit rate 0.18% among 65,000. AID 577, 2007;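 active = z-score at -3 or under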;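 note: score is relative to mean and spread of the compound wells of a plate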
Target sequence (P06935 1371-1501 limits assumed): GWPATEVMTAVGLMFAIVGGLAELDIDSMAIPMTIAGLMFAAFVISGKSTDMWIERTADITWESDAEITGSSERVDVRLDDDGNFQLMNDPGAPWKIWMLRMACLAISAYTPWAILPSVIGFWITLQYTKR
Target sequence (P06935 1502-1679 limits assumed): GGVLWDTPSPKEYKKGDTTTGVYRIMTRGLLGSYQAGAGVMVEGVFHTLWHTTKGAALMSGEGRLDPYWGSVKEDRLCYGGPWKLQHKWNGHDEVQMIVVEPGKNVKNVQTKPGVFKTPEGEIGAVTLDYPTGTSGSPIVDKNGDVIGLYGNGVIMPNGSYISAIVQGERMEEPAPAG
Starred values were filed as active, the others as inactive; i = inactive; . = no result given. An unsorted share of the library, and some 0.77% of all compounds hit somewhere here.

SMILES	Hsc70	MT1-MMP promoter	WNV NS2B-NS3 inh
CCOc1ccc(-c2nn(-c3ccccc3)cc2/C=C2\SC(=S)N(C3CCS(=O)(=O)C3)C2=O)cc1 (stereo unspecified)	28%	i	.
Cc1cc(NS(=O)(=O)c2ccccc2)cc(Cl)c1O	11%	i	-0.75
COc1ccc(-n2c(Cc3cccn3C)nnc2SCC(=O)Nc2ccc3c(c2)OCCO3)cc1	5.1%	i	-0.5
CS(=O)(=O)Nc1ccc(C(=O)NCc2ccc3c(c2)OCO3)cc1	-1.1%	i	0.16
CSc1nc(-c2ccccc2)nc(SC)c1C(C)=O	-2.9%	i	0.88
Cc1nc2ncnn2c(N2CCN(C(=O)c3cccc(F)c3)CC2)c1C	6.2%	i	.
COc1ccc(N(C(=O)c2ccc(S(=O)(=O)N3CCOCC3)cc2)C2C=CS(=O)(=O)C2)cc1 (stereo unspecified)	-3.3%	i	-1.3
O=C(CSc1ncnc2c1oc1ccccc12)NCc1ccc(F)cc1	-0.3%	i	-0.06
CC(=O)c1sc(NC(=O)c2ccco2)nc1-c1ccccc1	0.9%	i	2.1
Cc1cc(Cl)c(S(=O)(=O)N2CCN(c3ccc(F)cc3)CC2)cc1OCC(N)=O	-3.0%	i	-1.1
Cc1ccc(CNC(=O)COC(=O)c2cnccn2)cc1	0.6%	i	.
CC(=O)N1c2ccccc2C(C)(C)C2CCC(C)CC21 (stereo unspecified)	-2.3%	i	.
CC(C)[C@H](NC(=O)OC(C)(C)C)c1nnc(SCC(=O)Nc2ccc(Br)cc2)o1	5.4%	i	-0.06
Cn1cnc(S(=O)(=O)NCc2ccccc2)c1	4.3%	i	.
O=S(Cc1ccc(Cl)cc1)CC(O)COCc1ccc(Cl)cc1 (stereo unspecified)	6.5%	i	-0.88
CCC(OC(=O)c1cccs1)C(=O)NCc1ccc2c(c1)OCO2 (stereo unspecified)	0.9%	i	-0.16
Cc1ccc(CN=Cc2[nH]c3ccc(Br)c(Cl)c3c2O)cc1	-30%	i	.
O=S(=O)(NCCc1ccccn1)c1cccs1	-2.0%	i	-0.68
Cc1ccc(C)c(OCCCC(=O)O)c1	2.1%	i	-0.39
COc1ccc2cc(CCNC(=O)C(C)C)c(=O)[nH]c2c1	5.4%	i	-1.1
COc1c2c(nc3occc13)C(CC=C(C)C)(OC)C(O)CC2 (stereo unspecified)	0.3%	i	.
Cc1nn(C(=O)c2ccco2)c(C)c1CN1C(=O)c2ccccc2C1=O	4.6%	i	0.03
Cc1ccc(C(=O)CCNc2ccc(F)c(Cl)c2)o1	6.4%	i	0.56
CC(C)N(Cc1nc(-c2ccccc2)no1)C(=O)CN(C)S(=O)(=O)c1ccc(Br)cc1	-1.7%	i	.
CCC(C)NC(=O)CSc1ncccc1C(=O)O (stereo unspecified)	3.5%	i	.
O=C(NCc1ccco1)c1cccn2c(=O)c3sccc3nc12	1.4%	i	0.51
COCc1nnc(NC(=O)CC(C)c2ccccc2)s1 (stereo unspecified)	-7.2%	i	0.78
O=C(Nc1cccn(Cc2ccccc2)c1=O)NC1CCCCC1	-4.2%	i	.
COc1cccc(C(=O)Nc2ccc(NC(C)=O)cn2)c1	2.0%	i	-0.25
O=C(c1ccco1)N1CCN(c2ccc(Cl)c(Cl)c2)CC1	-4.3%	i	-0.22
CCCOc1ccc(-c2nnn(CC(=O)c3ccc4c(c3)OCCO4)n2)cc1	2.4%	i	-0.2
CCOc1cc2[nH]c(=S)n(CCCN3CCN(C)CC3)c(=O)c2cc1OCC	-2.0%	i	-1.1
N#Cc1ccc(C(c2nnnn2Cc2ccccc2)N2CCCC2)cc1 (stereo unspecified)	-4.0%	i	.
COC(=O)c1c(N)n(CCCN2CCOCC2)c2nc3ccccc3nc12	-1.6%	i	.
O=C1c2ccccc2NC(c2ccc(Cl)cc2Cl)N1Cc1ccccc1 (stereo unspecified)	4.5%	i	.
Cc1ccc(CSc2nnc([C@@H]3CCCN3)o2)cc1	-1.5%	i	.
Nc1nncn1C(=O)c1c(Cl)cccc1Cl	3.1%	i	0.75
CCCOc1ccc2oc(=O)c3c(c2c1)CCCN3C(=O)CN1CCN(C(=O)c2ccco2)CC1	0.3%	i	-0.56
COCCn1c(SCC(=O)Nc2cccc(OC)c2)nnc1-c1ccccc1	7.0%	i	-0.81
O=C(O)CSc1nnc(Cc2ccccc2)n1-c1ccccc1	-1.5%	i	-0.07
CCCCC(c1nnnn1CCOC)N1CCN(CC)CC1 (stereo unspecified)	-0.6%	i	.
CCN(CC)Cc1cc(NC2=NS(=O)(=O)c3ccccc32)ccc1OC(=O)C(C)C	-0.4%	i	.
COc1ccc2c(c1OC)C(=O)N(c1nccs1)C2	-2.3%	i	-0.89
CC(=O)Nc1c(C(=O)C2CC2)oc2ccccc12	2.6%	i	0.0097
CCc1ccc(N2CC(C(=O)Nc3ccccc3F)CC2=O)cc1 (stereo unspecified)	0.8%	i	-1.1
CNC(=O)C1CC(=O)N(Cc2ccc3c(c2)OCO3)C(=Nc2ccc(F)cc2)S1 (stereo unspecified)	-7.7%	i	-0.87
O=C(Nc1cccc2ccccc12)N1CCN(Cc2ccccc2)CC1	-2.6%	i	0.11
CCn1nc(CC(=O)Nc2nnc(CC(=O)N3CCCCC3)s2)c2ccccc2c1=O	-3.3%	i	-0.07
C=CCSc1ncccc1C(=O)NCc1ccccc1	2.4%	i	-0.63
CC(C)(O)c1cc(=O)sc2nc3ccccc3n12	3.3%	i	2.1
CN(C)CCCN1C(=O)C(O)=C(C(=O)c2cc3ccccc3o2)C1c1ccccn1 (stereo unspecified)	-1.0%	i	-0.2
Cc1ccc(-n2c(SCC(=O)NCC3CCCO3)nc3n[nH]c(C)c3c2=N)cc1Cl (stereo unspecified)	0.1%	i	0.6
COc1ccc2c(CC(=O)OCC(=O)Nc3ccc4c(c3)OCO4)coc2c1	-3.0%	i	0.69
COc1cc(OC)c(OC)cc1CN1CCN(c2ccccc2OC)CC1	1.1%	i	0.63
CCCCOCCCNC(=O)CCCOc1ccccc1	-0.5%	i	.
Cc1ccccc1N(CC(=O)O)S(C)(=O)=O	8.2%	i	.
Cc1cc(NC(=O)C2C3C(=O)N(CCC(C)C)C(C(=O)NCc4ccccc4)C34C=CC2(C)O4)no1 (stereo unspecified)	-1.9%	i	0.22
O=C(Cc1n[nH]c(=O)c2ccccc12)Nc1ccc(-c2nnc3n2CCCCC3)cc1	-1.4%	i	.
CCOC(=O)N1CCN(C(=O)CSCc2nc(-c3ccccc3F)oc2C)CC1	7.0%	i	0.25
c1ccc2c(c1)[nH]c1c(N3CCC4(CC3)OCCO4)ncnc12	0.1%	i	-0.63

One compound at a time, from the list above. Order of screens: Hsc70 | MT1-MMP promoter | WNV NS2B-NS3 inh
Cc1cc(NS(=O)(=O)c2ccccc2)cc(Cl)c1O across the screens: 11% | i | -0.75
O=C(Cc1n[nH]c(=O)c2ccccc12)Nc1ccc(-c2nnc3n2CCCCC3)cc1 across the screens: -1.4% | i | .

Remaining list, next part:
SMILES	Hsc70	MT1-MMP promoter	WNV NS2B-NS3 inh
COc1cc(/C=N/NC(=Nc2ccc(C)cc2)c2nc3ccccc3s2)ccc1O	-2.8%	i	.
Cc1ccccc1CSCC(=O)NC(=O)NCc1ccco1	-8.5%	i	-1.1
CCOc1ccc2[nH]c(=O)c(CN(CCO)C(=O)c3ccc(OC)c(OC)c3)cc2c1	4.2%	i	.
O=S(=O)(N1CCOCC1)N1CCN(c2ccc(F)cc2)CC1	8.3%	i	.
O=C(COc1ccccc1)Nc1nnc(-c2ccc(Cl)s2)o1	3.5%	i	-0.27
COc1ccc(-n2nnnc2SCC(=O)NCc2ccco2)cc1OC	-1.7%	i	-0.71
Cc1cc(NC(=O)CSc2nccn2-c2ccc(F)cc2)no1	-14%	i	-0.34
O=C(O)Cn1c2c(c3ccccc31)CCCC2	25%	i	-0.62
CC(C)C12CN3CC(C(C)C)(CN(C1)C3c1ccco1)C2=O (stereo unspecified)	3.6%	i	.
CC(C)COc1ccc(-c2nnc(-c3ccncc3)o2)cc1	4.1%	i	-0.06
COc1cccc(CNC(=O)CCn2c(=O)oc3ccccc32)c1	-0.8%	i	-0.0056
O=C(NC1CCCCC1)N1CCCc2ccccc21	7.5%	i	0.33
Cc1nc2ccc(N)cc2s1	0.4%	i	0.79
CC1(C)CC2(CCO1)OC(=O)CC2C(=O)NCCc1ccccc1 (stereo unspecified)	3.8%	i	0.05
Cn1c(SCCN2CCCCC2)nnc1-c1ccccc1Br	3.2%	i	0.61
CCCc1cc(=O)[nH]c(SCC(=O)NC)n1	-0.4%	i	.
O=C(c1ccccc1)c1ccc(C(=O)N2CCN(c3ccc(F)cc3)CC2)o1	0.3%	i	-0.24
O=C(Nc1ncc(C(F)(F)F)cc1Cl)C1COc2ccccc2O1 (stereo unspecified)	2.3%	i	0.49
COc1ccc(N(CC(=O)Nc2cc(OC)ccc2OC)S(=O)(=O)c2c(C)nn(C)c2C)cc1	-0.1%	i	-0.3
CCCCN(CCCC)Cc1ccc(N)cc1	-0.3%	i	-0.64
Cc1ccc(S(=O)(=O)N2CCN(Cc3ccccc3C(F)(F)F)CC2)cc1	1.3%	i	1.4
O=C(Nc1ccon1)c1cc2c(s1)CCCCCC2	-7.2%	i	0.69
CCn1c(SCC(=O)c2ccc(F)cc2)nnc1-c1ccoc1C	-2.0%	i	0.52
Cc1cc(O)ccc1C1(c2ccc(O)cc2C)OC(=O)c2ccccc21	2.6%	i	.
O=C(NC1CCCC1)C(c1ccsc1)N(Cc1ccco1)C(=O)Cc1cccs1 (stereo unspecified)	53%	i	0.24
COC(=O)c1ccccc1NC(=O)c1cc(OC)cc(OC)c1	-3.3%	i	0.25
O=S(=O)(N1CCCCCC1)N1CCN(S(=O)(=O)N2CCCCC2)CC1	-3.5%	i	.
O=C(CCCOc1ccc(Cl)cc1Cl)NCCCO	2.9%	i	0.91
COCCn1nnnc1C(c1cccc(C(F)(F)F)c1)N1CCN(Cc2ccccc2)CC1 (stereo unspecified)	2.1%	i	.
CCCCCCCSc1nc(N)cc(=O)[nH]1	2.5%	i	.
Cc1oc2c(c1C(=O)NCc1ccccc1)CCCC2	-8.8%	i	1.5
COc1cc(NS(=O)(=O)c2ccc3c(c2)oc(=O)n3C)cc(OC)c1OC	0.0%	i	-0.32
CCOC(=O)C1CCCN(C(=O)Cn2cccc2C(=O)c2ccccc2)C1 (stereo unspecified)	1.6%	i	0.15
COc1ccc(O)c(C(=O)c2cc(C#N)c(=O)n(CC3CCCO3)c2)c1 (stereo unspecified)	-2.2%	i	.
CCN(CC)c1nc(N(CC)CC)[nH]c(=O)n1	-2.2%	i	0.22
Nc1cc(N)cc(-c2nc3ccccc3[nH]2)c1	-10%	i	-1.6
CCCCCCCCNc1ncnc2ccccc12	-7.8%	i	.
O=C(CN1CCC(n2nnc3cc(F)ccc32)CC1)NCCc1nc2ccccc2[nH]1	-4.2%	i	-0.32
COc1ccc(-n2c(C)nc3cc(C(=O)N4CCOCC4)ccc32)cc1	-9.7%	i	-1
CC(C)COC(=O)c1cccc2c1-c1ccccc1/C2=N\O	-0.6%	i	.

Filtered by structure: the compounds so far with a COOH group
SMILES	Hsc70	MT1-MMP promoter	WNV NS2B-NS3 inh
Cc1ccc(C)c(OCCCC(=O)O)c1	2.1%	i	-0.39
CCC(C)NC(=O)CSc1ncccc1C(=O)O (stereo unspecified)	3.5%	i	.
O=C(O)CSc1nnc(Cc2ccccc2)n1-c1ccccc1	-1.5%	i	-0.07
Cc1ccccc1N(CC(=O)O)S(C)(=O)=O	8.2%	i	.
O=C(O)Cn1c2c(c3ccccc31)CCCC2	25%	i	-0.62

The listing continues:
SMILES	Hsc70	MT1-MMP promoter	WNV NS2B-NS3 inh
CN(C)C(=O)c1snnc1-c1ccccc1	-0.3%	i	.
Cc1cccc2cc(CN(CCCO)C(=O)Nc3ccccc3Cl)c(=O)[nH]c12	-0.6%	i	-1.3
COc1ccc(S(=O)(=O)N2Cc3ccccc3CC2C(=O)Nc2nccs2)cc1 (stereo unspecified)	0.4%	i	.
O=c1c2ccccc2sn1-c1cc(S(=O)(=O)N2CCOCC2)ccc1N1CCCC1	-3.3%	i	.
O=C1NC(Nc2nccs2)(C(F)(F)F)C(=O)N1CCc1ccccc1 (stereo unspecified)	0.8%	i	-0.15
CC(=O)NCCn1c(SCc2cc(=O)n3cc(Cl)ccc3n2)nc2ccccc2c1=O	-0.9%	i	0.06
O=C(Cn1ncc2c(=O)oc3ccccc3c21)N1CCN(C(=O)c2ccco2)CC1	3.0%	i	-1.2
CCCC(C)n1[nH]c(=O)c2c(C)cc(C)nc21 (stereo unspecified)	-2.9%	i	0.01
COc1cc(CC(=O)Nc2ccc(S(=O)(=O)N(C)C)cc2)cc(OC)c1OC	-4.4%	i	0.62
CCN(CC(=O)NC)S(=O)(=O)c1ccc(Br)cc1	0.8%	i	-0.65
CS(=O)(=O)N1CCN(C(=O)c2cc3ccccc3oc2=O)CC1	5.3%	i	0.08
COc1ccc(-c2cn(/N=C/c3ccc(Cl)cc3Cl)c(N)n2)cc1	-4.7%	i	.
c1cnc2ccc(C(c3nnnn3C3CCCCC3)N3CCN(C4CCCCC4)CC3)cc2c1 (stereo unspecified)	-2.3%	i	.

As entered above:
CC1(C)CC2(CCO1)OC(=O)CC2C(=O)NCCc1ccccc1 (stereo unspecified) – WNV NS2B-NS3 inh: 0.05
CCn1nc(CC(=O)Nc2nnc(CC(=O)N3CCCCC3)s2)c2ccccc2c1=O – WNV NS2B-NS3 inh: -0.07
O=C(NC1CCCCC1)N1CCCc2ccccc21 – Hsc70: 7.5%
c1ccc2c(c1)[nH]c1c(N3CCC4(CC3)OCCO4)ncnc12 – Hsc70: 0.1%
